2A StopGo = High Throughput Screening for Foot and Mouth Disease Virus Antivirals; human cells with a luciferase reporter of 2A StopGo recoding; control for the full effect not named in the record; Potency, µM (doses to about 57.9 µM), for the others: at the top dose signal change, negative = less light; actives 1.2% (n = 410,000); AID 1159524, 2015; active = well fitted falling curve with a large enough effect; inconclusive = small, poorly fitted or top-dose-only effect; inactive = no such curve, though single readings can be large or run the other way; tested in HEK293T cells; further: on the % scale 0 is the no-effect control and ±100 the full control effect; nearly all actives have a fitted effect of over 45% in size; luciferase light after 4 h
Cruzain noTriton = qHTS Assay for Promiscuous and Specific Inhibitors of Cruzain (without detergent); AID 1476, 2009; actives 2.3% (n = 200,000); purified cruzain, Z-FR-AMC fluorescence, no detergent; Potency, µM, inactives show max response, negative = inhibition, actives largely listed as inhibitors; Cruzipain (Trypanosoma cruzi), P25779;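 further: plate controls were enzyme without inhibitor for no effect and buffer without enzyme for full effect; nearly all actives have a fitted effect of over 40% in size; top concentration of the series not given in the record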
Target sequence (P25779 123-467 limits assumed): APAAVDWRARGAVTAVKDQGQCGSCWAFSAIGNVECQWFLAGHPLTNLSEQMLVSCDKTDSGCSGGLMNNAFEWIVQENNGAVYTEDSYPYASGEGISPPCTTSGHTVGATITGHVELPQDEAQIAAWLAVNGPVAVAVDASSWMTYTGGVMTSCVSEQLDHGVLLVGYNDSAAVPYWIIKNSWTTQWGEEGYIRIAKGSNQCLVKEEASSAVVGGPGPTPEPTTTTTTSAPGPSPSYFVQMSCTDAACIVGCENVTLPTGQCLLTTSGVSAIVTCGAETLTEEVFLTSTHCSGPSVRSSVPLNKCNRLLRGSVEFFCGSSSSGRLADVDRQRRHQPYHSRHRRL
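Purified cruzain at 1.5 nM, pre-incubated 15 min with compound at room temperature in 100 mM sodium acetate pH 5.5, 5 mM DTT, 0.00005% Triton X-100. Reaction started with 2 uM Z-FR-AMC; AMC fluorescence increase over 60 s gives rate.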
NS1 function inh = qHTS Assay for Inhibitors of Influenza NS1 Protein Function. actives 0.4% (n = 270,000). S. cerevisiae slowed by influenza A NS1, growth recovery by OD600. AID 2326, 2010. Potency, µM (doses to about 46.1 µM), inactives show at the top dose activity, positive = more growth; active means well fitted rising curve with a large enough effect; inconclusive means small, poorly fitted or top-dose-only effect; inactive means no such curve, though single readings can be large or run the other way; further: nearly all actives have a fitted effect of over 50% in size
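OD600 was taken as the measure of yeast growth restored by compound in an NS1-expressing S. cerevisiae strain. Cells had been washed out of glucose medium and diluted 1:100 into galactose -URA medium, pH 6.0.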
SARS PLP yeast = qHTS of Yeast-based Assay for SARS-CoV PLP | actives 0.19% (n = 330,000) | S. cerevisiae expressing SARS-CoV PLpro, growth rescue; control for the full effect not named in the record | Potency, µM (titrated, usually from 32.9 µM), for the others: at the top dose activity, positive = growth rescue | AID 485353, 2010; active means well fitted rising curve with a large enough effect; inconclusive means small, poorly fitted or top-dose-only effect; inactive means no such curve, though single readings can be large or run the other way; further: 0% is about no effect; nearly all actives have a fitted effect of over 55% in size; growth read by luminescence after 48 h
RE007 growth inh = qHTS Assay for Inhibitors of the HIV-1 protein Vpr | S. pombe RE007 Vpr strain, BacTiter-Glo ATP luminescence, 24 h; control for the full effect not named in the record | Potency, µM (highest dose often 92.2 µM), inactives show top-dose activity change, negative = less growth | actives 0.21% (n = 360,000); active = well fitted falling curve with a large enough effect; inconclusive = small, poorly fitted or top-dose-only effect; inactive = no such curve, though single readings can be large or run the other way;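 further: on the % scale 0 is the no-effect control and ±100 the full control effect; nearly all actives have a fitted effect of over 50% in size; the assay follows cell death caused by Vpr and the record does not say whether a fall means rescue or toxicity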
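Fission yeast RE007 carrying one integrated HIV-1 vpr copy, seeded at OD 0.01 in PMG+AL medium with 23 nL pinned compound. Grown 24 h at 30 degrees; viability read by BacTiter-Glo luminescence after 5 min.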
Marburg entry inh = qHTS for inhibitors of binding or entry into cells for Marburg Virus | Marburg virus pseudotyped entry inhibition, cell reporter; control for the full effect not named in the record; about a third of the inactives were read at about 46 µM | Potency, µM (doses to about 37.8 µM), without a hit: at the top dose activity change, negative = inhibition, hits mostly inhibitors | actives 1.8% (n = 300,000); active = well fitted inhibition curve with a large enough effect; inconclusive = small, poorly fitted or top-dose-only effect, or effect the other way; inactive = flat fitted curve, though single readings scatter; tested in HEK293 cells; about a fifth of its hits are not listed in these tables; further: on the % scale 0 is the no-effect control and ±100 the full control effect; luciferase read-out
Cruzain Triton = qHTS Assay for Promiscuous and Specific Inhibitors of Cruzain (with detergent) | purified cruzain, Z-FR-AMC fluorescence, 0.01% Triton | Potency, µM, for inactives: max response, negative = inhibition, most hits filed as inhibitors | actives 0.43% (n = 200,000);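 further: plate controls were neutral wells for no effect and buffer without enzyme for full effect; nearly all actives have a fitted effect of over 40% in size; top concentration of the series not given in the record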
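Cruzain (1.5 nM) preincubated 15 min at RT with compound in 100 mM sodium acetate pH 5.5, 5 mM DTT, 0.01% Triton X-100. Reaction started with 2 uM Z-FR-AMC; AMC fluorescence (ex 360/em 450 nm) change over 60 s gave rate.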
Lassa entry inh = qHTS for Inhibitors of binding or entry into cells for Lassa Virus | Potency, µM (titrated, usually from 37.9 µM), for the others: at the top dose activity change, negative = inhibition, most hits filed as inhibitors | Lassa virus pseudotype entry inhibition, cell reporter; control for the full effect not named in the record | actives 1.2% (n = 300,000); active means well fitted inhibition curve with a large enough effect; inconclusive means small, poorly fitted or top-dose-only effect, or effect the other way; inactive means flat fitted curve, though single readings scatter; tested in HEK293 cells; further: on the % scale 0 is the no-effect control and ±100 the full control effect; nearly all actives have a fitted effect of over 50% in size; luciferase read-out
* hit, by the source's call; ? = inconclusive; / = not tested or not shown; & = joins results of further samples; [ ] = another dose, or the depositor's remark. Unless noted, the call rests on the fitted dose curve; in most records, active means well fitted curve in the direction sought with a large enough effect; inconclusive means small, poorly fitted or top-dose-only effect, or another doubt; inactive means no such curve, though single readings can be large; an effect the other way counts as inactive or inconclusive. Potency means the concentration at half of the fitted maximal effect.

Values run as follows: 2A StopGo | Cruzain noTriton | NS1 function inh | SARS PLP yeast | RE007 growth inh | Marburg entry inh | Cruzain Triton | Lassa entry inh
COCCOC(=O)c1c(C)nc(SCC(=O)Nc2cccc3ccccc23)c(C#N)c1-c1ccco1
  5% | 22% | 3% | -4% | 8% | ? | -1.6% | -6%
NC(=S)NNC(=O)Nc1ccc(Cl)c(Cl)c1
  -18% | 2µM* | -36% | 9% | -16% | -1% | 3.2µM* | 7%
Cc1ccc(-n2c(C)cc(C3=NNC(=NC4CC4)SC3)c2C)cc1C
  18µM* | -23% | 4% | -5% | 6% | / | -4.0% | /
Cc1ccc(C)c(NC(=O)CCC(=O)OC(C(=O)c2ccccc2)c2ccccc2)c1 (configuration not stated)
  24% | 7% | 14% | -1% | 0% | 10% | -7.9% | ?
CCOC(=O)C1CCN(C(=O)c2ccc3c(=O)n4nc(Nc5cc(C)ccc5C)sc4nc3c2)CC1
  -13%&-9% | ? | 13% | 4% | 21% | / | -4.7% | 1%[46.1 µM]
CC(=O)c1cccc(NC(=O)Oc2ccccc2)c1
  / | 5% | 3% | -1% | 15% | 13% | 4.7% | -10%
Cn1c(=O)cc(SCC(=O)N2CCN(Cc3ccc4c(c3)OCO4)CC2)c2ccccc21
  -1% | 4% | -9% | 3% | 14% | 11% | 3.3% | ?
CCCn1c(=O)sc2cc(NC(=O)c3ccccc3OCC)ccc21
  -27% | -4% | / | / | / | ? | -1.3% | 7%[46.1 µM]
CC(=O)c1cccc(NC(=O)C2CCCN(S(=O)(=O)c3ccc(F)cc3)C2)c1 (configuration not stated)
  ? | -2% | -12% | -1% | 14% | -12% | -3.8% | -11%
Cn1c(-c2ccccc2)cnc1NCc1cc(Cl)ccc1O
  30%[activator] | / | -20% | -4% | -12% | ? | / | -1%
Cc1cc(OC(C)C(=O)NCc2ccncc2)c2c3c(c(=O)oc2c1)CCC3 (configuration not stated)
  -4% | / | 3% | -4% | -11% | / | / | /
Cc1[nH]n(-c2ccccc2)c(=O)c1C=Nc1ccc2[nH]c(=O)[nH]c2c1
  -14% | 8% | 18% | 2% | 13% | 9% | -2.6% | 6%
COc1cccc(C(=O)Nc2nc(-c3ccccc3)c(-c3ccccc3)o2)c1
  -10% | 19% | -13% | ? | 4% | ? | -6.2% | ?
CCOC(=O)c1ccc(N2C(=O)c3n[nH]c(-c4ccco4)c3C2c2cccc(OC)c2)cc1 (configuration not stated)
  ? | -6% | / | / | / | ? | -8.3% | ?
CC(C)S(=O)(=O)c1csc(C(=O)NNC(=O)Nc2ccccc2)c1Cl
  -2% | / | -8% | 4% | 9% | -9% | / | -4%
O=C(Nc1ccccc1F)C1CCN(S(=O)(=O)c2cccnc2)CC1
  -8% | / | 9% | -1% | 8% | / | / | /
COC(=O)c1cc(NC(=O)c2cc(-c3ccc(Cl)cc3)oc2C(F)(F)F)ccc1N1CCOCC1
  -22% | / | ? | -5% | -16% | ? | / | ?
CCOC(=O)c1c(NC(=O)NC(C)(C)C)sc2c1CCN(C)C2
  -19% | / | 4% | -1% | -4% | -1% | / | 15%
Cc1ccc2oc(-c3cccc(NC(=O)c4ccc(Br)o4)c3C)nc2c1
  -22% | 15% | -4% | -10% | -4% | -5% | 9.1% | ?
CC(C)(C)Nc1nc(Cl)nc(Nc2ccccc2)n1
  12% | / | -16% | -1% | 2% | ? | / | ?
CCOC(=O)C1CCCN(C/C(O)=C(\C#N)c2nc(-c3ccc(Cl)cc3)cs2)C1 (configuration not stated)
  / | ? | -41% | 3% | 16% | 0%&0% | -7.0% | 4%
CC(C)c1ccc(/C=C2\CC/C(=C\C=N\N(C)C)C2=O)cc1
  13% | ? | -2% | -8% | 1% | 16% | -8.9% | -6%
Cc1ccc2c(c1)N(CCCC(=O)NCC1COc3ccccc3O1)C(=O)CO2 (configuration not stated)
  -6% | 21% | -22% | -13% | 2% | -23% | -3.1% | 10%
Cc1cccc(-c2nnc(SCC(=O)NC3CCCC3)o2)c1
  -4% | / | -1% | / | -5% | ? | / | 10%[46.1 µM]
O=C(NCCc1ccc(Cl)cc1)c1ccc2c(c1)OCO2
  3% | / | 2% | 14% | 13% | ? | / | -31%[46.1 µM]
CCOC(=O)C1CCCN(Cc2cc(Br)ccc2OC)C1 (configuration not stated)
  15% | -5% | -5% | -1% | 0% | ? | 7.5% | -1%
COc1ccc(-c2cnc(N)nc2-c2ccc(OCc3ccccc3)cc2O)cc1
  ? | / | 6% | -2% | -2% | ? | / | ?
COc1cc(C(=O)OCC(=O)Nc2ccc(S(=O)(=O)N3CCCC3)cc2)cc(OC)c1OC
  -3% | / | / | -5% | -1% | ? | / | -19%[46.1 µM]
CC(C)(C)n1nnnc1C(c1cccs1)N(Cc1cccnc1)CC1CCCO1 (configuration not stated)
  1% | 0% | -9% | -8% | 1% | -9% | 2.6% | 13%
CC1CCCCN1C(=O)c1ccc(C(=O)N2CCCCC2C)cc1 (configuration not stated)
  -4% | -2% | 4% | 6% | 4% | 13% | 3.4% | -3%
O=C1CCC(Cc2ccccc2)N1 (configuration not stated)
  / | 14% | 11% | 0% | -8% | 10% | 4.1% | 21%
Cc1cccc(NC(=O)c2ccc(CN3CCc4ccccc4C3)cc2)c1C
  -26% | / | 3% | 0% | 13% | ? | / | ?
CCCc1cc(C(=O)NCC(C)C)no1
  51%[activator] | 9% | 8% | 4% | -2% | / | -1.2% | /
CCOc1cccc2cc(C(=O)NCc3ccc(F)cc3)c(=N)oc12
  -24% | / | 6% | 2% | 3% | / | / | /
CC(=O)c1ccc(NS(=O)(=O)c2ccc(C)cc2)cc1
  62%[activator] | 6% | -2% | 7% | 8% | -15%[46.1 µM] | 1.1% | -5%
CC1CCCN(CCSc2ccc(Cl)cc2)C1 (configuration not stated)
  -11% | 5% | 3% | -7% | -6% | -29% | -2.4% | ?
Cc1ccccc1C(C(=O)NC1CCCCC1)N(C(=O)CNC(=O)c1ccco1)c1cccnc1 (configuration not stated)
  -5% | / | 3% | 1% | -5% | -17%[46.1 µM] | / | 19%[46.1 µM]
Fc1ccc(-n2ncc3c(Nc4ccc(Oc5ccc(Cl)cc5)cc4)ncnc32)cc1
  -5% | -4% | / | / | / | / | -0.3% | 1%[46.1 µM]
COc1ccc(C(=O)C[n+]2ccc(-c3nnc4n3CCC4)cc2)cc1
  -24% | 8% | -5% | 1% | 12% | 5% | -5.9% | -1%
COc1cccc(/C=N/Nc2ccccc2C(=O)O)c1O
  8% | / | -56% | 0% | 8% | / | / | /
COc1cccc(NC(=O)c2cccc(C(=O)Nc3cccc(OC)c3)n2)c1
  -5% | / | 9% | -9% | -1% | 14% | / | ?
COc1ccc(OC)c(S(=O)(=O)N2CCN(C34CC5CC(CC(C5)C3)C4)CC2)c1
  0% | -12% | 3% | 1% | -10% | ? | 3.0% | -25%
COCCN(C(=O)CNC(=O)c1cccs1)C(C(=O)NC1CCCCC1)c1ccco1 (configuration not stated)
  -28% | -7% | -6% | -1% | 3% | 0% | 1.0% | -7%
CC(C)[C@H](NC(=O)c1ccco1)C(=O)OCC(=O)Nc1cccc(F)c1
  -3% | / | / | 3% | -3% | 6%[46.1 µM] | / | 0%
CCOc1ccc(CNCCCSc2ncccn2)cc1
  -4% | / | -3% | -2% | 5% | ? | / | 24%[46.1 µM]
COc1ccc(C(NC(C)=O)c2ccc3cccnc3c2O)c(OC)c1 (configuration not stated)
  0% | 6% | -54% | 2.2µM* | -6% | ? | 0.3% | 6.3µM*
Cc1cc(NS(=O)(=O)c2ccc(NC(=O)CCCC(=O)O)cc2)nc(C)n1
  -10% | 0% | 6% | 2% | -8% | 3% | 2.3% | 8%
CCCC1(C(=O)O)NC(c2ccccc2O)C2C(=O)N(c3cccc(Cl)c3)C(=O)C21 (configuration not stated)
  -12% | ? | 4% | -1% | 7% | -2% | 4.1% | /
CC(C)CCNC(=O)CNC(=O)c1cccs1
  64%[activator] | 5% | 11% | 8% | -11% | 2% | 1.9% | 3%
NC(=O)c1ccsc1NC(=O)CN1C(=O)NC2(CCCC2)C1=O
  4% | / | / | 2% | 28% | 0% | / | 14%

The list goes on (2 carried over from the part before).
Values run as follows: 2A StopGo | Cruzain noTriton | NS1 function inh | SARS PLP yeast | RE007 growth inh | Marburg entry inh | Cruzain Triton | Lassa entry inh
CC(C)CCNC(=O)CNC(=O)c1cccs1
  64%[activator] | 5% | 11% | 8% | -11% | 2% | 1.9% | 3%
NC(=O)c1ccsc1NC(=O)CN1C(=O)NC2(CCCC2)C1=O
  4% | / | / | 2% | 28% | 0% | / | 14%
COc1ccccc1CN(Cc1cc2c(C)ccc(C)c2[nH]c1=O)Cc1nnnn1Cc1ccco1
  0% | 8% | 8% | 0% | -9% | ? | -11% | ?
O=C(OCc1nc2scc(-c3ccccc3)c2c(=O)[nH]1)c1cc(Cl)ccc1[N+](=O)[O-]
  ? | 32µM* | 17% | 8% | -5% | ? | -3.5% | 17%
S=C(NCCc1ccccc1)N1CCN(Cc2ccc(Cl)c(Cl)c2)CC1
  0% | 18% | 5% | 2% | 4% | 2% | -8.9% | /
COc1cc([N+](=O)[O-])ccc1NC(=O)CCN1C(=O)C2C3CCC(C3)C2C1=O (configuration not stated)
  -5% | 8% | 9% | -4% | 4% | -1% | -1.5% | -8%
CCc1ccc(-n2c(=O)c3c4c(sc3n(Cc3ccc(C)cc3)c2=O)CCC4)cc1
  -3% | -2% | / | / | / | 27%[46.1 µM] | -1.6% | 2%[46.1 µM]
CC(C)c1nn2c(=O)cc(COC(=O)c3ccco3)nc2s1
  30%[activator] | -3% | / | / | / | / | -3.6% | -1%[46.1 µM]
CCOC(=O)CSc1cc(C)nc(N)n1
  -10% | -1% | -4% | 3% | -12% | -19% | 1.5% | 5%
NC(=O)c1ccccc1NCC(=O)c1ccc(Cl)cc1
  24% | / | -70% | -5% | -18% | 14%[46.1 µM] | / | 16%

Not a hit list. Share with any hit: about 4.7%.
